PINK1 modulator: changes PINK1 expression. PINK1 immunofluorescence, high-content cytometry, 24 h. Potency, µM (titrated, usually from 76.6 µM), for the others: at the highest dose activation (PINK1 increase), most hits filed as activators. 410,000 compounds, 0.2% hits. AID 624263; active = well fitted activation curve with a large enough effect; inconclusive = small, poorly fitted or top-dose-only effect; inactive = flat fitted curve, though single readings scatter; cell line not stated here;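 note: potency is the fitted concentration of half-maximal effect; % of control where 0% means no effect; nearly all actives have a fitted effect of over 65% in size; a mitochondrial uncoupler was the plate control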
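PINK1 protein level read as immunofluorescence by microplate cytometer in a fixed, stained stable cell line after 24 h exposure to five compound concentrations, with CCCP as control.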
D2 agonist: activates the human D2 dopamine receptor; P14416; DiscoveRx PathHunter D2 beta-arrestin, luminescence, 90 min; 100% = 57 uM dopamine signal; activation, % (no concentration beside the values); 360,000 compounds, 0.084% hits; AID 624465; in the data active = activation above about 40%; inconclusive = about 15% to 40%; inactive = below about 15%; note: compound concentration not given in the record; the text of the record calls up to 30% inactive
Target sequence (P14416 whole entry, looked up): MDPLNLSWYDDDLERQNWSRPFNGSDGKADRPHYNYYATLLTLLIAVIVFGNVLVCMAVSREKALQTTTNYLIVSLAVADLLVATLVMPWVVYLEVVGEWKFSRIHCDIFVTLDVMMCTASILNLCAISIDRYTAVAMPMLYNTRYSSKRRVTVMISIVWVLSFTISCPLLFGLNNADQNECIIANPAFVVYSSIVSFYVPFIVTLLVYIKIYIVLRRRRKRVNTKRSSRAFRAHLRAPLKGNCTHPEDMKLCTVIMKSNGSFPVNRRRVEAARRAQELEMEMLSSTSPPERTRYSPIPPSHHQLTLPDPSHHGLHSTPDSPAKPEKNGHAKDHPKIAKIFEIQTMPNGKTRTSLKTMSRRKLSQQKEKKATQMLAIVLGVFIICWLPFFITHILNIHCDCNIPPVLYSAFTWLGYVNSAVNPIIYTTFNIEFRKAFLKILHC
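Agonist mode: compounds alone added to overnight-plated D2 PathHunter cells for 90 min at 37 C, with 57 uM final dopamine (EC100) defining full response. Beta-arrestin recruitment detected by chemiluminescent reagent, read after 1 h at ambient temperature.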
D2 PAM: potentiates the human D2 dopamine receptor allosterically. P14416. DiscoveRx D2 beta-arrestin cells, luminescence, 90 min; 100% = 57 uM dopamine signal. potentiation, % (concentration not given with the values). 360,000 compounds, 0.23% hits; active = potentiation of 50% or more; inconclusive = 30% to 50%; inactive = 30% or less;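 note: tested on top of an EC20 dose of dopamine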
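PathHunter beta-arrestin assay in DiscoveRx D2 cells. Compounds were added with an EC20 of dopamine (50 nM final) for 90 min at 37 deg C. Luminescence was read 1 h after detection reagent, with 57 uM dopamine as the EC100 control.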
TRPML1 agonist: activates the human TRPML1 channel. Q9GZU1. TRPML1-expressing cells, Ca2+ dye fluorescence, FDSS; host cell line not named in the record; reference of the full effect not given here. activation, % (concentration not given with the values). 410,000 compounds, 0.12% hits. AID 624414; in the data active = activation above about 50%; inconclusive = about 30% to 50%; inactive = below about 30%; note: 0% is about no effect; the text of the record puts the active cut at 80%
Target sequence (Q9GZU1 whole entry, looked up): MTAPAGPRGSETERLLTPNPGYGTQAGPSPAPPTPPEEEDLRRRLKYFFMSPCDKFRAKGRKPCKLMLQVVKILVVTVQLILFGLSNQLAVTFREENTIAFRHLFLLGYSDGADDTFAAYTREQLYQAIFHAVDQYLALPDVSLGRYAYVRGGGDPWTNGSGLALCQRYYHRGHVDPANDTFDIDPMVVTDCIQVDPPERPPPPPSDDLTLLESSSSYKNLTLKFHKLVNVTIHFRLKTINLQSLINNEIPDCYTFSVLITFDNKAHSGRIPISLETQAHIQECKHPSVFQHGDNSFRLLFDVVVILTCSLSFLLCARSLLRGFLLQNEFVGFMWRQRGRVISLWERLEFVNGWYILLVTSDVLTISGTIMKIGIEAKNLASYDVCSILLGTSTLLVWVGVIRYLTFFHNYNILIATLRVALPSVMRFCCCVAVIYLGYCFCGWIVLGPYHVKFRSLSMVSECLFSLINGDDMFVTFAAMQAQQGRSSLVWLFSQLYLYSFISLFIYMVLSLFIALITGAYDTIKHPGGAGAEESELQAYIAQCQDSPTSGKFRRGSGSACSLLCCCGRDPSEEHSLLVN
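Tet-induced TRPML1-DL cells, 1,500 per well, cultured overnight, were loaded with a no-wash Ca2+ dye for 45–90 min. Calcium fluorescence was recorded on the FDSS for 110 s after compound addition, before the EC80 agonist (4 uM 54-4) was added.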
TRPML1 inh: blocks the human TRPML1 channel; TRPML1-inducible cells, Ca2+ dye fluorescence, FDSS; hits give low values; inhibition of EC80 agonist-evoked calcium signal; activity change, negative = inhibition, % (no concentration beside the values); 390,000 compounds, 0.02% hits; in the data active means activity change below about -50%; inconclusive means about -30% to -50%; inactive means above about -30%;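 note: stimulus is agonist 54-4 at its EC80 concentration; % is set by controls: 0 for no effect and ±100 for the full control effect; compound concentration not given in the record; the text of the record puts the active cut at -80%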
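Calcium fluorescence in TRPML1-DL cells induced overnight with Tet: a 110 s read after compound pin addition, then a 110 s antagonist read after challenge with 54-4 at 4 uM final (EC80).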
Six1-Eya2 blk: blocks human Six1 binding to Eya2 | 360,000 compounds, 0.56% hits | AlphaScreen GST-Six1/His-Eya2 binding, biochemical; hits give low values; control for the full effect not named in the record | activity change, % (concentration not given with the values) | AID 651725; in the data active = activity change below about -65%; inconclusive = about -30% to -65%; inactive = above about -30%; note: % is set by controls: 0 for no effect and ±100 for the full control effect
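AlphaScreen luminescence read after one hour at 37 °C in darkness. Pin-transferred compounds met GST-Six1 and His-Eya2 protein (5X stock 250 nM/500 nM) plus glutathione donor and Ni-chelate acceptor beads (5X, 50 ug/mL).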
Active calls of the source: *; ? = inconclusive; nt = not tested or not shown; & = joins results of further samples; [ ] = remark or other dose.

Sample of the layout:
SMILES	PINK1 modulator	D2 agonist	D2 PAM	TRPML1 agonist	TRPML1 inh	Six1-Eya2 blk
O=C(NNC(=O)c1ccc2c(c1)OCO2)NC12CC3CC(CC(C3)C1)C2	0.0%	-0.4	-6.5	-0.3	16.4	-1.1
Cc1ccc(C(=O)COC(=O)CNC(=O)Cc2ccccc2)cc1[N+](=O)[O-]	1.9%	-11.7	-26.8	1.7	-15.1	8.5

The whole of this part, from the first entry:
SMILES	PINK1 modulator	D2 agonist	D2 PAM	TRPML1 agonist	TRPML1 inh	Six1-Eya2 blk
O=C(NNC(=O)c1ccc2c(c1)OCO2)NC12CC3CC(CC(C3)C1)C2	0.0%	-0.4	-6.5	-0.3	16.4	-1.1
Cc1ccc(C(=O)COC(=O)CNC(=O)Cc2ccccc2)cc1[N+](=O)[O-]	1.9%	-11.7	-26.8	1.7	-15.1	8.5
CC(C(=O)NCc1ccc2c(c1)OCO2)N(c1ccccc1)S(C)(=O)=O (stereo unspecified)	-1.2%	-2.6	-18.4	0.1	-4.8	2.0
O=C1CCCC2=C1C1(CCCCC1)N=C(Nc1nc3ccccc3o1)N2	21.4%	0.6	-3.0	0.4	4.6	0.7
CC(=O)c1c(C)c2c(n1CCN(C)C)CCCC2	1.8%	-0.1	-8.6	-0.5	-17.4	-8.9
COc1ccccc1-c1ocnc1C(=O)N1CCN(C(=O)C(c2ccccc2)c2ccccc2)CC1	-1.1%	-3.3	-4.5	0.4	-25.1	5.1
O=c1nc(-c2ccccc2)n(-c2ccc(Cl)cc2)[nH]1	-1.0%	-2.0	-16.8	-0.2	-1.6	0.0
COCCCn1c(SCCc2ccccc2)nc2cc(OC)c(OC)cc2c1=N	2.3%	6.4	-11.1	-0.2	1.9	-2.1
O=C(O)CN1C(=O)/C(=C/c2ccccc2Cl)Oc2ccccc21	0.7%	-4.6	-2.5	nt	nt	0.4
Cc1cc2nc(-c3ccc(NC(=O)c4cc5ccccc5o4)cc3)oc2cc1C	2.6%	nt	nt	0.9	0.9	nt
CCCCNC(=O)C1(C)CCN1C(=O)c1cc(OC)ccc1Br (stereo unspecified)	2.0%	-4.1	-0.2	-0.5	nt	-0.3
CCC(=O)Nc1cccc(NC(=O)CSc2nnc(C(C)C)n2CC)c1	1.4%	-3.9	0.6	1.7	-9.8	2.9
Cc1cc(NC(=O)COC(=O)COc2ccc3c4c(c(=O)oc3c2)CCC4)no1	0.3%	-3.4	-17.3	-0.4	22.4	1.6
C#CCNc1c2c(nc3ncnn13)CC(C)CC2 (stereo unspecified)	0.0%	0.4	-0.2	nt	nt	-1.0
COc1ccc(C(=O)C2C(c3ccc(-c4ccccc4[N+](=O)[O-])o3)NC(=O)NC2(O)C(F)(F)F)cc1 (stereo unspecified)	0.3%	8.5	28.5	0.6	-4.0	-16.1
NC(=O)c1ccccc1N/C=C1\CCCCC1=O	0.9%	-8.4	-10.7	-0.3	2.2	-3.2
COC(=O)c1cccc(NS(C)(=O)=O)c1C	5.4%[38.3 µM]	0.1	4.0	0.4	4.5	3.4
CC(C)Cn1nc(C(=O)N2CCc3ccccc32)c2ccccc2c1=O	14.1%	-3.9	-19.0	1.9	13.1	-2.7
CC1=C/C(=C\C=C(C#N)C#N)N(C)c2ccccc21	?	-2.6	-4.4	18.0	47.3	-16.0
CCC1SC2=NC(C)=C(C(=O)OC)C(c3cccs3)N2C1=O (stereo unspecified)	-0.7%	-2.4	-5.2	2.6	-3.3	-0.6
CCN1CCCc2cc(CN(CCN3CCOCC3)C(=S)Nc3cccc(OC)c3)ccc21	1.7%	-2.2	-11.7	0.6	19.1	?
CCC(=O)c1ccc(OC(=O)c2ccc(Br)o2)cc1	-1.2%	-0.4	4.6	0.4	9.6	-13.6
CCOc1ccc(NC(=O)c2ccccc2-c2ccccc2C(=O)O)cc1	-0.6%	-5.2	10.0	-0.4	-6.3	17.9
CC(NC(=O)CCN1C(=O)c2ccccc2C1=O)c1ccccc1 (stereo unspecified)	1.6%	-2.5	-7.7	nt	nt	-0.8
CC(NC(=O)CN1C(=O)NC2(CCCCCCC2)C1=O)c1ccccc1 (stereo unspecified)	-0.7%	0.3	-7.5	0.1	-1.3	6.3
Cc1ccc(C(=O)CCC(=O)Nc2cccnc2)cc1C	0.1%	-2.8	-18.3	-0.7	-1.6	1.2
Cc1cccc(-n2nc(C)c3c2NC2=C(C(=O)CCC2)C3c2ccccn2)c1 (stereo unspecified)	1.5%	-4.5	-7.0	0.0	-2.3	2.3
Cc1ccc(NC(=O)COC(=O)CCC(=O)c2cccs2)cc1C	0.5%	-0.6	-2.7	0.7	10.1	-4.6
c1ccc(-c2cn(-c3ccccc3)c3[n+]2CCS3)cc1	-1.2%	-2.2	-9.4	0.1	-10.0	7.4
COc1cccc(SCc2noc(C(=O)NCCN(C)C)c2C(=O)NCCN(C)C)c1	0.4%	-2.9	-5.8	0.3	11.2	-0.3
O=c1[nH]c(CN2CCN(c3ccccc3O)CC2)nc2scc(-c3ccccc3Cl)c12	1.1%	-0.8	-17.3	0.7	61.5	-9.6
Cc1ccc(S(=O)(=O)c2n[nH]n3c2nc(=O)c2ccccc23)cc1	-1.2%	-3.9	-5.4	-0.5	0.5	-14.2
NC(=O)c1c(N)sc(=S)n1-c1ccccc1	-0.2%	-3.1	-3.5	-0.7	5.6	1.8
COc1ccc(Cl)cc1N1C(=NC(=O)C2CCCO2)SC2CS(=O)(=O)CC21 (stereo unspecified)	-0.4%	-3.0	-3.5	6.1	15.3	9.5
CCSc1ncc(Cl)c(C(=O)N2CCN(c3ccccc3OC)CC2)n1	16.0%	nt	nt	0.1	7.6	nt
COc1ccc2nc(N(Cc3cccnc3)C(=O)c3ccco3)sc2c1	19.3%	nt	nt	0.5	32.9	nt
COc1cc(OC)c(NC(=O)Nc2ccc(OC)c(OC)c2)cc1Cl	0.4%	0.9	12.8	-1.0	18.0	7.8
CC(C)(C)OC(=O)CNC(=O)c1nc[nH]c1C(=O)NCC(=O)OC(C)(C)C	-1.3%	0.9	-2.2	1.4	9.6	-7.3
Cc1cc(NS(=O)(=O)c2ccc(NC(=O)/C=C/c3ccc(C)o3)cc2)nc(C)n1	-2.5%	-6.7	-7.6	0.3	7.2	-28.9
O=C(Cn1nc(C(F)(F)F)c2c1CCCC2)Nc1ccc(F)c(Cl)c1	?	nt	nt	2.5	10.8	nt
COc1cc(C(=O)Nc2ccc(N3CCCS3(=O)=O)cc2)c([N+](=O)[O-])cc1OC	?	-4.8	-16.7	0.8	-7.3	9.2
CC(C)C[C@@H](CSc1ccccc1)N1CCN(CC(C)C)CCC1=O	8.8%	-3.2	-27.8	0.5&0.0	-2.5	-6.3
CNC(=O)C1CCCN1S(=O)(=O)c1ccc(OC)cc1 (stereo unspecified)	1.2%	-1.6	-1.9	-1.0	-14.2	4.0
COC(=O)COc1cccc(NC(=O)c2cc(OC)cc(OC)c2)c1	2.3%	-20.1	-20.7	-1.0	-1.4	2.7
CCCC(CCC(=O)Nc1cccc([N+](=O)[O-])c1)C(=O)O (stereo unspecified)	0.6%	-2.0	-10.4	0.7	2.6	6.7
COc1ccc(NCc2nnc3n2CCCCC3)c(OC)c1	-4.8%	nt	nt	1.2	-7.4	nt
CC(=O)/C(N=Nc1ccc(C(=O)O)cc1)=C(\C)O	1.3%	2.2	-0.8	0.6	2.7	1.3
Cc1ccc(-c2nnc(N3CCOCC3)c3ccccc23)cc1S(N)(=O)=O	1.0%	0.3	-0.5	1.4	-12.7	-25.7
CC(C)(C)OC(=O)N1CCC(c2c(C(=O)N3CCN(c4cccc(Cl)c4)CC3)cnn2-c2cccc(Cl)c2)CC1	-1.7%	nt	nt	69.8*	-11.8	nt
N#CC1=CN(Cc2ccccc2)C=C(/C=N/Nc2ccccc2)C1	7.9%	-1.2	-11.1	0.8	7.2	0.0
CCC1CN(C(=O)N2CCC(C(=O)NCCOC)CC2)c2ccccc2O1 (stereo unspecified)	0.2%	nt	nt	2.0	-11.2	nt
CCOC(=O)c1cc(-c2ccccc2)sc1NC(=O)C(C)C	15.1%	1.5	-13.2	1.3	34.7	0.5
CC(C)/C(=N/Nc1ccccc1[N+](=O)[O-])c1ccccc1	14.8%	-3.3	1.0	2.6	1.6	?
COc1cccc(CNC(=O)COC(=O)C2CCN(c3ccc(C(F)(F)F)cn3)CC2)c1	-1.5%	0.9	-9.4	0.7	16.9	0.7
COc1ccc(-n2c(N)c(C#N)c3ccc([N+](=O)[O-])cc3c2=O)cc1	?	2.6	5.3	1.2	-4.5	-20.3
Nc1ccc(-n2nncc2-c2ccccc2)cc1	2.0%	-3.3	-3.1	-0.1	26.4	-14.1
COc1ccc(CCN2C(=O)N(c3ccc(C)cc3)C(=O)C2CC(=O)Nc2ccc(OC)cc2)cc1 (stereo unspecified)	0.4%	nt	nt	0.7	7.4	nt
O=C(CCc1ccc(Oc2cc([N+](=O)[O-])cc([N+](=O)[O-])c2)cc1)N1CCCCCC1	2.1%	?	75.1*	-0.1	55.2	?
CNC(=S)N1N=C(c2ccc(OC)cc2)CC1c1ccc(Cl)cc1Cl (stereo unspecified)	-0.7%	0.6	0.4	-0.5	16.0	-7.4
COc1ccc([N+](=O)[O-])cc1C(=O)NCCOc1ccc(Cl)cc1	0.7%	3.0	-10.9	4.1	55.2	-13.9

Further compounds
SMILES	PINK1 modulator	D2 agonist	D2 PAM	TRPML1 agonist	TRPML1 inh	Six1-Eya2 blk
CCOC(=O)c1c(C)[nH]c(C)c1S(=O)(=O)NCCc1ccc(SC)cc1	1.0%	-1.8	-15.1	1.5	-5.8	-9.6
O=C(N1CCCCC1)N1CCN(S(=O)(=O)c2cccc([N+](=O)[O-])c2)CC1	-1.5%	4.3	-1.1	0.0	1.8	3.6
COC(=O)[C@H](C)N(Cc1ccc(Cl)c(Cl)c1)S(=O)(=O)CCN1CCCC1	-0.2%	0.4	nt	0.7	-0.3	-3.2
Cc1cccc(S(=O)(=O)Nc2nc3ccccc3nc2NCc2ccc3c(c2)OCO3)c1	1.3%	-2.2	1.8	0.9	32.7	11.9
CCn1c(SCC(=O)N2CCc3ccccc3C2)nc2sc(C)c(C)c2c1=O	3.8%	-1.6	-12.0	0.0	7.4	-1.2
CC1CCCN(CCCNC(=O)c2ccc3c(c2)N(Cc2cccc(Cl)c2)C(=O)c2ccccc2S3(=O)=O)C1 (stereo unspecified)	0.0%	nt	nt	3.8	-1.6	nt
COc1ccc(Nc2cc(C(=O)NCCCN3CCN(c4ccc(OC)cc4)CC3)c3ccccc3n2)cc1	2.4%	nt	nt	1.5	-8.0	nt
CCOc1ccc2nc(N3CCC(C(=O)Nc4cc(C)ccc4C)CC3)sc2c1	0.7%	nt	nt	-0.6	7.3	nt
COc1c(C=O)cc2c3c1CCCN3CCC2	0.2%	4.4	-7.0	0.0	-12.1	-6.7
C=CCOc1ccc(CN(C)CC(=O)Nc2ccccc2[N+](=O)[O-])cc1	4.4%	-1.9	-7.0	2.7	-10.5	?
CCN(CC)S(=O)(=O)c1ccc(Cl)c(NC(=O)COC(=O)c2cc(-c3ccccc3Cl)nc3ccccc23)c1	1.1%	0.4	-13.6	0.1	4.6	-0.8
CCCN(CCC)C(=O)c1c[nH]c2ccc(S(=O)(=O)Nc3cc(C)cc(C)c3)cc2c1=O	4.4%	nt	nt	2.2	-22.1	nt
CCOc1ccccc1C(=O)N1c2ccccc2Sc2ccccc21	5.0%	-4.5	-19.3	2.5	56.9	8.9

Bioassay records (PubChem)
